# MT1-MMP act inh: blocks activation of human MT1-MMP. P50281. HT1080 RFP-PRO-GFP cells, GFP/RFP ratio fluorescence, overnight; percent of plate control window, DMSO zero. GFP/RFP ratio change, % at 20 µM. actives 0.061% (n = 360,000). AID 651647;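 active means GFP/RFP ratio change of at least 30% with cell ATP level not reduced by more than half and red fluorescence within 50% of control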; further: strong numbers were not always called active
#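 Material: RFP-PRO-GFP reporter HT1080 cells. Dosing: single-point 20 µM compound, 1% DMSO. Controls: DMSO and RFP-L50D-GFP cell wells. Timing: cells overnight before dosing, compound overnight, 37 °C, 5% CO2. Measure: GFP/RFP fluorescence ratio.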
# PABP FP inh: PABP-poly(A) binding inhibition; P11940; PABP-poly(A) RNA binding, fluorescence polarization; inhibition, % at 35 µM; actives 1% (n = 290,000); AID 2014;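 active means 50% or more with normal probe brightness, or confirmed in later tests; inconclusive means above 50% with abnormal brightness, or retests that disagree; inactive means below 50% or failed in later tests; about a fifth of its hits are not listed in these tables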;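 further: calls also rest on retests at 20 µM and on dose response follow-up; controls were probe without protein and protein plus probe with vehicle; some compounds called inactive have numbers as strong as hits; many hits fall short of the cut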
# Target sequence (P11940 whole entry, looked up): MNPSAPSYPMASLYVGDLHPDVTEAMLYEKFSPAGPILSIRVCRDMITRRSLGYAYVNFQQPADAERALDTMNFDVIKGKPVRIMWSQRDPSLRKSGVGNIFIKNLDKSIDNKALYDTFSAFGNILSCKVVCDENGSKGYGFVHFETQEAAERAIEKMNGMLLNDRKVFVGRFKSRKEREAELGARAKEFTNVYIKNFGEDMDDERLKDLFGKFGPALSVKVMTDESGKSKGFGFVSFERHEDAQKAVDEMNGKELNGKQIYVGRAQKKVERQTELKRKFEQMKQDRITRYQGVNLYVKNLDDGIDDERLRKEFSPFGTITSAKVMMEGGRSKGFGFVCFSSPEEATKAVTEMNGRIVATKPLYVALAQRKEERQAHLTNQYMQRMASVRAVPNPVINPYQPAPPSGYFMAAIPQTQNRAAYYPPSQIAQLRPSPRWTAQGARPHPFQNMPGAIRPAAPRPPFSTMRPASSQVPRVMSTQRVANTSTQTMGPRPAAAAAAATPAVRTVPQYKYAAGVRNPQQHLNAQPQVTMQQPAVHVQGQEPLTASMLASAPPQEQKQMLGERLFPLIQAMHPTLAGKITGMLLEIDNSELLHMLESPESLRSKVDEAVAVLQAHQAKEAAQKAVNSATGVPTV
# Yeast UUG start: yeast start codon fidelity modulation; S. cerevisiae UUG-firefly luciferase reporter, luminescence/redox ratio; activity score, % at 18.7 µM; actives 0.13% (n = 350,000);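 active means replicate mean at a twofold rise or more, about +100% in these data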;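 further: firefly luciferase made from a UUG start codon reports start codon fidelity; reporter light over untreated wells divided by growth signal over untreated wells; some hits fall short of that in this replicate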
# CSC inhib: blocks cancer stem cells | cancer stem cell-like cells viability, luminescence | actives 1.1% (n = 300,000) | inhibition, % at 7.5 µM;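 active means mean at 75% or more and at least half the replicates too; inconclusive means mean and replicates disagree; tested in HMLE shEcad cells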;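 further: 0% = median of negative and 100% = median of positive control wells; the first replicate is given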
# Rce1 inh: yeast Ras-converting enzyme inhibition; Q03530; yeast membranes, quenched prenylated peptide cleavage fluorescence; calls only; actives 0.27% (n = 290,000);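 active means fall in fluorescence gain of 50% or more versus controls, with final raw signal at or below 3038400; inconclusive means same 50% fall but final raw signal above 3038400; inactive means fall in fluorescence gain under 50%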;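 further: plate controls were neutral control wells for no effect and wells lacking membranes for full effect; tested at 10 µM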
# Target sequence (Q03530 whole entry, looked up): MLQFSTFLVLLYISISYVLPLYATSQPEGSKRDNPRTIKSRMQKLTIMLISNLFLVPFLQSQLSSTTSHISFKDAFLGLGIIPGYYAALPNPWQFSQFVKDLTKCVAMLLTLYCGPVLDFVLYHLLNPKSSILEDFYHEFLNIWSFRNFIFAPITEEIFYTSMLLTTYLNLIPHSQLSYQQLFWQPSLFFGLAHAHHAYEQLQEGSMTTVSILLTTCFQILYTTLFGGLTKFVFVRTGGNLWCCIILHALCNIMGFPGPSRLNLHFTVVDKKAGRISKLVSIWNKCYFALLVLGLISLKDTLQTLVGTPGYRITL
# Env fusion inh: HIV envelope-mediated fusion inhibition; HeLa-JRFL Env/CEM21 cell fusion, luciferase; inhibition, % at 12.3 µM; actives 1.1% (n = 360,000); AID 651610;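 active means mean replicate inhibition score of at least 50 and every replicate individually at or above 50; inconclusive means only one of the two criteria met; inactive means mean below 50 and not all replicates reaching 50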;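 further: 0% = plate neutral controls and 100% = maraviroc near 300 nM; one replicate is shown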
# eIF4H FP inh: inhibitors of RNA binding by human eIF4H. Q15056. actives 0.94% (n = 290,000). eIF4H fluorescence polarization binding assay. inhibition, % at 35 µM;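 active means 50% or more with normal probe brightness, or confirmed in later tests; inconclusive means above 50% with abnormal brightness, or retests that disagree; inactive means below 50% or failed in later tests; about a fifth of its hits are not listed in these tables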;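 further: calls also rest on retests at 20 µM and on dose response follow-up; 0% = protein and probe with vehicle and 100% = probe without protein; strong numbers were not always called active; many hits fall short of the cut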
# MT1-MMP act inh RFP: further read-out of MT1-MMP act inh, marked with its call; RFP signal change, %; measured here: RFP expression control read;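 0 = vehicle wells; hits needed this value within 50% of zero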
# An asterisk follows results filed as active; i = inactive; ? = inconclusive; / = not tested or not shown. Compounds as they come; 2.9% or so of the library scored in one or more.
SMILES,MT1-MMP act inh,MT1-MMP act inh RFP,PABP FP inh,Yeast UUG start,CSC inhib,Rce1 inh,Env fusion inh,eIF4H FP inh
COc1cccc(CN2CC(C(=O)NCCc3ccc(C)o3)CCC2=O)c1 (stereo unspecified),1.7,2.0,-13.1,-5.1,0.1,i,-14.5,-1.7
COc1cccc(OC)c1OCC(O)CN1CCN(c2ccccc2)CC1 (stereo unspecified),0.9,5.4,6.4,-10.2,-7.4,i,/,1.3
O=C(c1cc2cc(Br)ccc2[nH]1)N1CCc2ccccc21,-0.1,6.7,2.0,4.3,-11.0,i,-1.5,0.0
O=C(/C=C/c1ccco1)NCCc1ccccc1,-3.3,0.3,12.3,-2.3,/,i,-284.4,8.5
c1ccc(-c2noc(-c3ccc4c(c3)OCO4)n2)cc1,4.4,5.0,-1.7,/,/,i,-76.4,0.8
COc1cccc(N2CCN(c3ccc4nnc(CCC(=O)Nc5ccccc5OC)n4n3)CC2)c1,-0.4,-1.6,/,-10.7,-12.8,i,3.7,/
COc1cc(CSc2ncn[nH]2)c(OC)cc1CSc1ncn[nH]1,/,/,-1.7,-16.9,-5.8,i,29.4,-1.1
O=C(NC1CCCC1)C1CCCN(C(=O)Nc2ccccc2)C1 (stereo unspecified),0.5,1.5,-0.4,-17.1,-2.6,i,0.9,-8.4
COc1ccccc1-c1nc(C(N)=O)c2[nH]c(=O)n(-c3cccc(C)c3)c2n1,-12.9,-4.5,-4.3,/,-13.4,i,/,-7.6
CSCCC(N=C(NS(=O)(=O)c1ccc(C)cc1)c1ccccc1)C(=O)O (stereo unspecified),-1.8,1.1,-0.9,/,-20.0,i,-9.6,-5.2
COc1ccc(C2CC(c3ccc(Cl)cc3)=NN2C(C)=O)cc1 (stereo unspecified),2.0,-4.8,-2.4,6.2,-3.2,i,-16.4,6.2
CCC(C)NS(=O)(=O)c1ccc(OCC(=O)N2CCC(C)CC2)cc1 (stereo unspecified),0.2,-1.2,-9.4,0.3,-12.2,i,/,-6.0
CC(C)C[C@H](NC(=O)c1nc[nH]c1C(=O)NCC(=O)OCc1ccccc1)C(=O)OCc1ccccc1,-3.9,-1.0,0.4,-12.6,-1.8,i,3.5,11.2
CCCCS(=O)(=O)N1CN(S(=O)(=O)CCCC)C2NC(=O)NC21 (stereo unspecified),5.5,3.1,3.3,/,0.5,i,-71.3,2.0
CCOc1ccc(CN2CCNC(=O)C2CC(=O)N(C)Cc2nonc2C)cc1 (stereo unspecified),-0.3,3.5,-1.0,-6.3,-17.0,i,22.6,-11.9
Cc1c(NC(=O)CSc2ccc(Cl)cc2)cccc1-c1nc2cc(Cl)ccc2o1,-2.9,-4.1,5.4,-3.5,5.6,i,/,-1.2
CCOC(=O)C1CCN(C(=O)c2cc(S(=O)(=O)N3CCOCC3)c(Cl)cc2Cl)CC1,4.6,7.2,-1.6,/,-7.0,i,/,4.1
COc1ccccc1NS(=O)(=O)c1cc(NC(=S)Nc2cc(C)cc(C)c2)ccc1Cl,-1.0,-1.4,30.4,/,17.4,i,-7.3,3.0
CC1Cc2ccccc2N1C(=O)CSc1nnnn1C(C)C (stereo unspecified),4.0,5.7,-1.7,-13.3,-12.2,/,-16.1,-5.4
CN(CC(=O)Nc1ccc(F)cc1)C(=O)COc1ncnc2ccccc12,-4.1,-0.1,-0.1,-12.0,-1.5,i,9.8,-8.1
CCn1c(CCNC(=O)c2cccs2)n[nH]c1=S,-1.8,2.8,26.5,6.6,14.0,i,/,13.1
O=C(Nc1cccc(Cl)c1)c1ccc2sc([C@H]3C[C@H](O)[C@@H](CO)O3)nc2c1,-1.5,-19.6,/,8.0,/,/,-53.7,/
CC1CN(C(=O)CCC(=O)NC2CCCCC2)c2ccccc2S1 (stereo unspecified),0.1,6.2,-5.1,14.2,/,i,-46.3,-12.3
Cc1cc(C)cc(NC(=O)CSc2nc(=O)n3cc(C)ccc3n2)c1,-0.6,-4.9,/,-25.4,4.7,i,1.3,/
O=C(CSc1nnnn1-c1ccccc1)Nc1nsc(-c2ccc(Cl)cc2)n1,-0.1,-3.3,2.6,/,-11.6,i,/,2.7

# Full records, looked up by structure. Order of screens: MT1-MMP act inh | MT1-MMP act inh RFP | PABP FP inh | Yeast UUG start | CSC inhib | Rce1 inh | Env fusion inh | eIF4H FP inh
# Record of `CN(CC(=O)Nc1ccc(F)cc1)C(=O)COc1ncnc2ccccc12` : -4.1 | -0.1 | -0.1 | -12.0 | -1.5 | i | 9.8 | -8.1
# Record of `CC1CN(C(=O)CCC(=O)NC2CCCCC2)c2ccccc2S1` (stereo unspecified) : 0.1 | 6.2 | -5.1 | 14.2 | / | i | -46.3 | -12.3
# Record of `COc1cc(CSc2ncn[nH]2)c(OC)cc1CSc1ncn[nH]1` : / | / | -1.7 | -16.9 | -5.8 | i | 29.4 | -1.1

# Following part:
SMILES,MT1-MMP act inh,MT1-MMP act inh RFP,PABP FP inh,Yeast UUG start,CSC inhib,Rce1 inh,Env fusion inh,eIF4H FP inh
COc1ccc(OC)c(NC(=O)CCN2CCCC(C)C2)c1 (stereo unspecified),15.1,5.8,10.3,/,-4.4,i,-7.3,-4.8
Cc1ccc(NC(=S)NC(=O)c2ccc(F)cc2)cc1S(=O)(=O)Nc1ccccc1Cl,6.4,-14.2,-1.3,/,78.8*,i,-8.5,-0.7
CCn1cc(C(=O)OCC(=O)c2ccc(Cl)cc2)c(=O)c2ccc(C)nc21,1.6,0.3,-4.2,-9.0,-3.3,i,-6.6,0.4
C(=C\c1ccccc1)/CN1CCN(C(c2cccc3ccccc23)c2nnnn2Cc2ccccc2)CC1 (stereo unspecified),-7.8,-15.7,/,1.8,/,/,-20.8,/
N=c1oc2ccccc2cc1-c1nc(-c2ccc(Cl)cc2)cs1,2.3,4.6,-28.2,-17.5,17.9,i,5.6,39.7
CCOc1ccccc1N(C)C(=O)c1ccc2c(=O)n3c(nc2c1)CCCCC3,3.9,2.2,/,0.7,-8.2,i,2.6,/
CC(=O)Nc1ccc(S(=O)(=O)N2CCN(CCC#N)CC2)cc1,-2.9,-0.1,-11.6,5.2,2.6,i,-8.9,-8.2
Cc1cccc(CCNC(=O)CCS(=O)(=O)c2cc3c(cc2C)NC(=O)CO3)c1,-0.8,2.8,-14.4,-3.2,12.6,i,-33.3,-1.0
CC(C)c1cc(Nc2cccc(O)c2)cc(C(C)C)c1O,/,/,?,/,/,i,/,?
Clc1ccc(C2=Nn3c(nnc3-c3n[nH]c4c3CCC4)SC2)cc1Cl,6.6,-3.0,-7.1,-19.7,32.3,i,-61.8,6.8
Cc1ccc(-c2ccc(CN3C(CC(C)C)C(=O)N(Cc4cn(CCC5OCCCO5)nn4)CCS3(=O)=O)cc2)cc1 (stereo unspecified),-1.4,-2.5,/,-18.2,/,/,-11.4,/
O=C(CSc1ccc(-c2ccc(F)cc2)nn1)NCCc1ccccc1,2.3,-1.1,12.0,/,14.3,i,4.3,-9.5
O=C(CSc1nnc(-c2ccccc2F)o1)NC1CCCCC1,1.2,4.6,5.9,3.0,-1.5,i,-15.7,-13.5
COc1ccccc1/C=C/CN1CCC(n2nccc2NC(=O)C2CC2)CC1,1.4,5.1,-5.5,-17.3,-1.1,i,1.5,0.0
O=C(Oc1ccccc1Cl)c1ccc(-n2cncn2)nc1,0.7,-6.6,11.9,-27.0,4.7,i,-12.5,3.5
O=C(O)Cn1nc(-c2ccccc2)oc1=O,2.1,3.0,12.0,/,-20.0,i,/,1.4
CCc1nc2c(OCc3ccc(Cl)cc3)cccn2c1N(C)C(=O)c1ccc(C)cc1,-4.7,-5.2,/,-17.9,/,/,41.9,/
COc1ccc(/C=C\C(=O)CC(O)(c2ccccc2)C(F)(F)F)cc1 (stereo unspecified),1.3,-7.8,-4.8,/,/,/,45.0,-10.2
CC1CN(c2nc3c(c(=O)[nH]c(=O)n3C)n2Cc2ccccc2F)CC(C)O1 (stereo unspecified),-1.5,2.4,-0.8,5.3,-4.0,i,-34.9,18.6
Cc1ccc(NS(=O)(=O)c2ccc(CCC(=O)NCCO)cc2)cc1,0.6,1.5,-3.2,-7.4,4.9,i,27.9,-2.6
Cc1ccc(C)c(NC(=O)CSc2sc3c(O)cc(=O)[nH]c3c2C#N)c1,-4.0,1.5,4.9,-2.8,-7.7,i,11.2,9.2
COc1cccc(NC(=S)N2CCn3c(nc4ccccc43)C2)c1,3.0,2.2,0.4,/,-8.2,i,2.5,-7.8
NS(=O)(=O)c1cccc(Nc2nc3ccccc3nc2NS(=O)(=O)c2ccc(Cl)cc2)c1,8.7,2.5,/,5.1,-17.5,/,-5.6,/
O=C(NCC(=O)N(c1ccccc1F)C(C(=O)NCC1CCCO1)c1ccccc1)c1ccco1 (stereo unspecified),1.3,-2.2,7.7,0.6,-6.6,i,-46.5,0.1
Cc1ccc(-c2nc(C#N)c(NCc3cccc4c3OCO4)o2)cc1,3.6,3.3,5.5,-23.3,11.4,i,/,4.6
# The list continues.
SMILES,MT1-MMP act inh,MT1-MMP act inh RFP,PABP FP inh,Yeast UUG start,CSC inhib,Rce1 inh,Env fusion inh,eIF4H FP inh
O=C(N/N=C/c1ccncc1)c1ccc(OCc2ccccc2)cc1,3.5,3.3,-4.0,/,23.9,i,-2.8,-2.9
COc1ccc(C(=O)c2c[nH]c3ccccc23)cc1,-4.1,-7.1,4.3,-16.5,-5.5,i,/,3.5
COc1ccccc1C(CC(=O)N1CCCC1)c1ccc2c(c1)OCO2 (stereo unspecified),-8.8,-7.2,-6.8,/,-1.0,i,16.2,-6.6
Nc1cc(N)cc(C(=O)OCC(=O)Nc2cc(S(=O)(=O)N3CCCCC3)ccc2Cl)c1,-4.2,-10.6,-3.3,-12.7,/,i,-0.4,6.3
COCCCNC(=O)CSc1ccc(Cl)cc1,3.3,-3.8,5.5,-19.5,-8.8,i,18.7,-2.3
CC(=O)c1cc(OC(=O)N2CCOCC2)ccc1OC(=O)N1CCOCC1,4.3,3.6,6.1,-5.5,/,i,/,-9.3
O=C(NC(=S)Nc1ccc(F)c(Cl)c1)C1CC1,1.3,4.3,-6.4,-33.3,3.9,i,-16.8,-4.0
Cc1ccc(Cn2nnnc2CN2CCC(NC(=O)C(C)(C)C)CC2)cc1,-0.4,2.5,8.5,/,-16.0,i,-12.5,-9.5
CCCCN1C(=O)C(O)(c2ccccc2)c2cc(Br)ccc21 (stereo unspecified),-0.6,-1.7,2.6,-8.0,4.3,i,85.2*,-4.7
COc1ccccc1NC(=O)C1=C(C)Nc2nc(-c3cccs3)nn2C1c1cccnc1 (stereo unspecified),-0.8,2.8,-4.3,-8.0,-8.1,i,10.1,10.3
CC1=C(C(N)=O)C(c2ccccc2[N+](=O)[O-])n2ncnc2N1 (stereo unspecified),2.7,4.3,20.7,-14.6,-2.3,i,1.8,18.7
COc1cccc(-c2cc(C(F)(F)F)c(C#N)c(=O)[nH]2)c1,-0.9,1.4,6.3,6.7,8.1,i,16.6,-7.6
CCCC(=O)OCC(=O)Nc1ccc(OC(F)F)cc1,3.6,9.2,-2.9,-10.2,-4.8,i,12.6,-3.4
COCCOc1ccc(C(F)(F)F)cc1NC(=O)COC(=O)c1c(C)noc1C,-3.9,-2.0,-6.9,1.2,-0.6,i,11.7,1.7
CN(CC(=O)Nc1cccc(F)c1)C(=O)CNS(=O)(=O)c1ccc(N(C)C)c([N+](=O)[O-])c1,5.7,0.1,/,/,-7.6,i,6.3,/
CC1C/C(=N/N=C2/NC(=O)CS2)CC(C)(C)C1 (stereo unspecified),-2.0,0.9,11.8,-14.4,1.0,i,/,3.6
Cc1cccc(N2CCN(Cc3oc(CO)cc(=O)c3O)CC2)c1C,-0.2,3.3,-4.9,-15.0,-21.5,i,13.2,-0.8
